Source: PubChem BioAssay (National Center for Advancing Translational Sciences (NCATS))
PINK1 expr mod: modulators of PINK1 expression | PINK1 immunofluorescence, high-content cytometry, 24 h | Potency, µM (top dose mostly 76.6 µM), inactives show at the top dose activation (PINK1 increase), actives largely listed as activators | actives 0.2% (n = 410,000) | AID 624263; active = well fitted activation curve with a large enough effect; inconclusive = small, poorly fitted or top-dose-only effect; inactive = flat fitted curve, though single readings scatter; cell line not stated here;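 further: potency means the concentration at half of the fitted maximal effect; % of control where 0% means no effect; nearly all actives have a fitted effect of over 65% in size; a mitochondrial uncoupler was the plate control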
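Decision-based qHTS: stable cells, 24 h exposure to five compound concentrations, CCCP as control. Fixed cells stained for PINK1 plus nuclear, mitochondrial and cell markers, cytometer read.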
D2 PAM: potentiates the human D2 dopamine receptor allosterically | P14416 | DiscoveRx D2 beta-arrestin cells, luminescence, 90 min; 100% = 57 uM dopamine signal | potentiation, % (no concentration beside the values) | actives 0.23% (n = 360,000) | AID 624464; active = potentiation of 50% or more; inconclusive = 30% to 50%; inactive = 30% or less;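 further: compound concentration not given in the record; tested on top of an EC20 dose of dopamine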
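D2 cells co-treated with compound plus 50 nM dopamine (EC20) for 90 min at 37 deg C to detect potentiation. Beta-arrestin recruitment was read as enzyme-fragment luminescence after 1 h at ambient temperature. Full response was set by 57 uM dopamine.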
Six1-Eya2 blk: Six1/Eya2 interaction inhibition; actives 0.56% (n = 360,000); AlphaScreen GST-Six1/His-Eya2 binding, biochemical; active compounds read low; control for the full effect not named in the record; Q15475+O00167; AID 651725; activity change, % (test concentration not listed); in the data active = activity change below about -65%; inconclusive = about -30% to -65%; inactive = above about -30%; further: on the % scale 0 is the no-effect control and ±100 the full control effect
Target sequence (O00167 whole entry, looked up): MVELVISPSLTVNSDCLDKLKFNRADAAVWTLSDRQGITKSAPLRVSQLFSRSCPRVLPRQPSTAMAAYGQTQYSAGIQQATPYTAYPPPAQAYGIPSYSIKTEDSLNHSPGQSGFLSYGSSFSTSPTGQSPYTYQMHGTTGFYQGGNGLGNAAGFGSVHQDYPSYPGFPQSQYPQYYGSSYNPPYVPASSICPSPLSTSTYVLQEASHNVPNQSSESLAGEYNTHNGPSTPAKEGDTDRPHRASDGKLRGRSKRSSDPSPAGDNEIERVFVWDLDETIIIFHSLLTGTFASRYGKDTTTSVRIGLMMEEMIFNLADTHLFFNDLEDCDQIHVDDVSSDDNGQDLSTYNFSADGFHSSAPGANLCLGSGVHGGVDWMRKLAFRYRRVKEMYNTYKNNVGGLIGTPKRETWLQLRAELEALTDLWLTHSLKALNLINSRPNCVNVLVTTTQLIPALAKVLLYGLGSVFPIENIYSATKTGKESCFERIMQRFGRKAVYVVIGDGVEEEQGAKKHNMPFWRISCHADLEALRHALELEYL
Target sequence (Q15475 whole entry, looked up): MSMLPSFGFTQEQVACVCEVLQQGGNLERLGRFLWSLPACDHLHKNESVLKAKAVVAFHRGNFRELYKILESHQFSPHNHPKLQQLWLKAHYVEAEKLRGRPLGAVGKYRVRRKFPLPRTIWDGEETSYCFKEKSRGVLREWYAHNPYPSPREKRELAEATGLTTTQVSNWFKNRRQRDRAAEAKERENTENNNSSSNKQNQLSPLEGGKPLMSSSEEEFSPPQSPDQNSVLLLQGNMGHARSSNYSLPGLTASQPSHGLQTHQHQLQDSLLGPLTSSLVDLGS
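AlphaScreen luminescence read after one hour at 37 °C in darkness. Pin-transferred compounds met GST-Six1 and His-Eya2 protein (5X stock 250 nM/500 nM) plus glutathione donor and Ni-chelate acceptor beads (5X, 50 ug/mL).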
D2 agonist: agonists of human D2 dopamine receptor (beta-arrestin) | P14416 | DiscoveRx PathHunter D2 beta-arrestin, luminescence, 90 min; 100% = 57 uM dopamine signal | activation, % (concentration not given with the values) | actives 0.084% (n = 360,000); in the data active = activation above about 40%; inconclusive = about 15% to 40%; inactive = below about 15%; further: compound concentration not given in the record; the text of the record calls up to 30% inactive
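DiscoveRx PathHunter D2 beta-arrestin cells (2,100/well) attached overnight, then compound-stimulated 90 min at 37 C in HBSS/10 mM HEPES/0.1% Tween-20 buffer; beta-galactosidase complementation read by luminescence after 1 h at ambient temperature. Dopamine 57 uM final (EC100) as control.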
TRPML1 ag: agonists of human TRPML1 channel. Q9GZU1. TRPML1-expressing cells, Ca2+ dye fluorescence, FDSS; host cell line not named in the record; reference of the full effect not given here. activation, % (test concentration not listed). actives 0.12% (n = 410,000); in the data active = activation above about 50%; inconclusive = about 30% to 50%; inactive = below about 30%; further: 0% is about no effect; the text of the record puts the active cut at 80%
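Kinetic FDSS Ca2+ read in Tet-induced TRPML1-DL cells (ABD Ca8 dye plus quencher, 45-90 min RT loading): baseline, then compound, then 110 s agonist window; EC80 agonist 54-4 at 4uM final added afterwards for a 110 s antagonist window.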
CtBP-E1A inh: inhibitors of CtBP/E1A interaction. AlphaScreen GST-E1A/His-CtBP binding, 1536-well; active compounds read low; control for the full effect not named in the record. actives 0.49% (n = 340,000). activity change, % (test concentration not listed); in the data active means activity change below about -65%; inconclusive means about -30% to -65%; inactive means above about -30%; further: on the % scale 0 is the no-effect control and ±100 the full control effect
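AlphaScreen with 125 nM GST-E1A and 125 nM His-CtBP (5X stocks) in Tris pH 8.0, 300 mM NaCl, BSA, Tween 20, TCEP. Compounds preincubated 2 h at 37 deg C, then glutathione donor/nickel acceptor beads added for 1 h at 37 deg C in dark.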
* marks the source's active call; other numbers are inactive results; u = inconclusive; x = not tested or not shown; & = joins results of further samples; [ ] = dose if it differs, or a comment. No enrichment for hits, and some 1.3% of all compounds hit somewhere here.

SMILES	PINK1 expr mod	D2 PAM	Six1-Eya2 blk	D2 agonist	TRPML1 ag	CtBP-E1A inh
COCc1cc(C)n(CC(=O)Nc2ccccc2OC)c(=O)c1C#N	-1.6%	-1	8	0.7	4.4	-2
CC(C)c1nnc(NC(=O)CCC(=O)NCc2ccccc2Cl)s1	1.1%	-4	1	3.3	-0.6	9
COc1ccccc1NC(=O)CNC(=O)c1ccc(F)cc1	0.6%	11	0	-3.0	-0.9	2
CCCn1nnc(NC(=O)c2ccc(OC)cc2)n1	0.1%	-13	-3	-2.4	-1.1	0
Cc1nc(CC(C)C)cc(C(=O)N2CCCC(Nc3ccc(C)c(C)c3)C2)n1 (stereo not given)	-0.3%	1	-2	-1.0	0.9	-3
CCN1CCN(c2ccc(S(=O)(=O)N3CCCCC3)cc2NC(=O)c2cccc(C(F)(F)F)c2)CC1	9.0%	-11	3	-8.8	0.3	-2
CCn1ncc(C2=NOC(C(=O)N3CCN(c4ccccc4)CC3)C2)c1C (stereo not given)	8.6%[38.3 µM]	5	-2	-2.3	0.5	5
COc1ccc(N(CC(=O)Nc2ccccc2F)S(=O)(=O)c2ccc(C)c([N+](=O)[O-])c2)cc1	-1.9%	-2	-11	-0.6	4.6	-14
COc1ccc(Cl)cc1Nc1cc(C)nc2ccccc12	8.6%	-17	-4	-3.7	1.9	-7
Cc1oc(=O)c(NC(=O)c2ccc(Cl)cc2)cc1C(=O)c1ccccc1	5.6%	-31	-3	-4.0	0.0	-7
CCC(CC)C(=O)NCc1ccc(Cl)cc1	1.7%	-4	0	-2.9	-0.5	2
COc1ccc(C(CCN2CCOCC2)c2c(OC)cc(OC)c3c(-c4ccccc4)cc(=O)oc23)cc1 (stereo not given)	7.6%	x	-22	-4.1	4.7	-13
Cc1ccc(S(=O)(=O)N2CCCCC2)cc1NS(=O)(=O)c1ccccc1F	0.8%	1	3	2.5	-0.7	2
O=c1c2c(nc3cc(-c4ccccc4)[nH]n13)CCS2	-2.4%	5	10	0.1	0.9	-26
CC(NC(=O)c1cc(-c2ccccc2)on1)c1ccccc1 (stereo not given)	u	-15	28	1.8	3.2	44

By substructure, those above containing a Cl atom
SMILES	PINK1 expr mod	D2 PAM	Six1-Eya2 blk	D2 agonist	TRPML1 ag	CtBP-E1A inh
CC(C)c1nnc(NC(=O)CCC(=O)NCc2ccccc2Cl)s1	1.1%	-4	1	3.3	-0.6	9
COc1ccc(Cl)cc1Nc1cc(C)nc2ccccc12	8.6%	-17	-4	-3.7	1.9	-7
Cc1oc(=O)c(NC(=O)c2ccc(Cl)cc2)cc1C(=O)c1ccccc1	5.6%	-31	-3	-4.0	0.0	-7
CCC(CC)C(=O)NCc1ccc(Cl)cc1	1.7%	-4	0	-2.9	-0.5	2

Next section:
SMILES	PINK1 expr mod	D2 PAM	Six1-Eya2 blk	D2 agonist	TRPML1 ag	CtBP-E1A inh
COc1ccc(NC(=O)CCC(=O)c2cccs2)cc1S(=O)(=O)Nc1ccc(Cl)cc1	4.0%	7	-20	1.1	0.2	-11
CCCCCCCCCCOC(=O)Cn1c(COc2ccccc2)[n+](C)c2ccccc21	-1.5%	-46	5	-4.3	-0.2	x
CCOc1cc(/C=N/NC(=O)CSc2nncn2C)ccc1OCc1cccc(C)c1	4.0%	8	2	-3.7	-0.5	-4
C=CCN=C1CC(C)(C)CC(=O)/C1=C(\O)CCCN1C(=O)c2ccccc2C1=O	3.2%	-2	2	-0.4	0.7	-23
CCCn1c2c(c(O)c(C(=O)Nc3ccccc3)c1=O)CCCC2	9.2%	6	4	-0.7	-1.0	11
Cc1ccccc1C(=O)NCCc1nnc(SCC(=O)Nc2nc(-c3ccccc3)cs2)n1C	6.4%	-3	4	-2.8	-0.5	3
COc1cc(-c2nc3ccccn3c2NCc2ccccc2)ccc1SC1CCCCC1	u	-7	-13	0.4	-0.4	x
COC(=O)c1cc(S(=O)(=O)N2CCN(c3ccc(C(C)=O)cc3)CC2)c[nH]1	0.9%	-26	-1	5.9	0.2	-7
CCn1cc(C(c2ccccc2)C(C(C)=O)[N+](=O)[O-])c2ccccc21 (stereo not given)	2.1%	-6	-21	-3.9	1.9	-15
COc1ccc(-c2cc3c(=O)n(CC(=O)N4CCN(C)CC4)ncn3n2)cc1	-0.3%	-2	-1	-6.1	-0.2	-18
N=c1n(CCN2CCCC2)c2ccccc2n1CC(O)c1ccco1 (stereo not given)	-5.1%[38.3 µM]	-4	0	-0.2	0.4	-3
COc1ccc(NC(=S)N2CCCC(c3nc4ccc(C)cc4[nH]3)C2)c(OC)c1 (stereo not given)	-0.7%	-15	-9	1.7	1.0	x
COc1ccc(/C=C/CN2CCC(Oc3ccc(C(=O)N4CCCCC4)cc3)CC2)cc1	1.1%	-27	1	-5.7	0.3	-6
COc1ccc(C(=O)CSc2nnc(-c3ccco3)n2C)cc1	-1.5%[38.3 µM]	-8	-3	-1.2	0.0	-15
CN1CCN(C(=O)c2ccc3c(c2)N(Cc2ccc(Cl)cc2)C(=O)c2ccccc2S3=O)CC1 (stereo not given)	1.3%	-7	3	2.9	0.5	5
COc1ccc(C2CC(c3ccccc3)=NN2C(=O)COC(=O)c2cccc(S(=O)(=O)N3CCOCC3)c2)cc1 (stereo not given)	-0.4%	-3	3	0.5	1.1	-2
CC(=O)N1CCc2cc(S(=O)(=O)NCC(=O)NCc3ccccc3Cl)ccc21	-1.0%	-7	-1	-5.7	-0.7	0
CCn1cc(/C=C(\NC(=O)c2ccccc2Cl)C(=O)N2CCN(C)CC2)c2ccccc21	-1.4%	-14	7	-3.7	-0.3	0
CC(OC(=O)c1ccc(S(=O)(=O)N(C)c2ccccc2)cc1)C(=O)NCCC1=CCCCC1 (stereo not given)	0.8%	-21	11	0.1	-0.2	10
CS(=O)(=O)Nc1cccc(NC(=O)C2Cc3c(-c4ccccc4)ccnc3O2)c1 (stereo not given)	1.3%	-17	8	-1.5	0.1	-21
O=C1NC(=S)SC1=C1CCCC1	-0.5%	-11	-9	-3.2	-0.5	-2
C/C(=N/NS(=O)(=O)c1cccc([N+](=O)[O-])c1)c1ccncc1	-0.7%	-5	8	3.1	-0.4	1
O=C(CCNC(=O)N1CC(=O)Nc2ccccc21)NCCc1cccc(F)c1	-0.2%	-16	8	0.1	-0.2	-3
CN(C)c1ccc(C(O)c2cc3ccccc3s2)cc1 (stereo not given)	3.3%	0	u	-3.2	1.7	u
Cc1onc(-c2ccccc2)c1C(=O)NCCc1ccc(Cl)cc1	7.9%	-23	1	-3.6	0.0	4
Cc1ccc(C(=O)NCC(=O)N2CCCCCCC2)cc1C	-0.3%	1	-2	0.3	0.2	6
CCN(CC(=O)NC(=O)NCc1ccccc1)Cc1ccccc1	-0.3%	-6	9	-3.6	2.4	11
CCCCn1c(N)c(N(CCOC)C(=O)CSc2n[nH]c(-c3ccc(OC)cc3)n2)c(=O)[nH]c1=O	0.0%	-7	7	-6.9	-0.3	-4
O=C(CCN1C(=O)C2C3C=CC(C3)C2C1=O)NCc1cccnc1 (stereo not given)	0.1%	-1	-5	-2.8	-0.9	1
COc1ccc(C(=S)N2CCCC2)cc1C	x	-6	-1	0.2	0.3	4
Nc1ncnc2c1CN(Cc1ccccc1)CC2	-3.9%	-1	4	-1.8	-0.5	7
CC1CCCN(CCCNC(=O)c2cc3c(Cl)nc4ccccc4c3s2)C1 (stereo not given)	-3.1%&0.9%	-11	-15	2.1	-0.5&0.0	-13
Cc1cccc(/C=C(\C(=O)C(=O)O)c2ccc3ccccc3n2)c1	-1.2%	-10	16	-2.8	6.0	-13
NNc1nc(-c2ccccc2)c2ccccc2n1	1.8%	-14	-2	-1.4	0.3	4
Nc1nccc(-c2ccc(-n3cnc4ccccc43)cc2)n1	-0.9%	4	-3	-0.9	1.7	-1
COc1ccc(NC(=O)C(C)N(C)Cc2ccc3ccccc3c2)cc1 (stereo not given)	2.0%	-13	0	-2.4	3.0	-4
COC(=O)c1ccc(COc2ccc(/C=N/NC(=O)C(=O)Nc3ccc(OC)cc3)cc2OC)o1	-1.2%	-4	-6	-2.1	0.9	6
O=C(CSc1nnc(-c2cccs2)n1-c1cccc(Cl)c1)c1cccc2c1OCCO2	6.1%	-9	3	0.2	0.1	9
COc1ccc(OCC(=O)Nc2cccc(NC(=O)c3ccco3)c2)cc1	-0.1%	-7	-5	5.8	0.4	x
COc1cccc(NC(=O)c2ccc3nsnc3c2)c1	0.5%	-5	-2	-3.1	0.0	-6
CC(N)C12CC3CC(CC(O)(C3)C1)C2 (stereo not given)	1.0%[38.3 µM]	-6	6	1.3	0.4	-2
O=C(CSc1nnc(-c2ccc(O)cc2)n1Cc1ccco1)c1cccs1	-3.0%[38.3 µM]	-9	-16	-1.4	0.6	-22
COC(=O)/C=C/c1ccc(-n2ccnc2)cc1	4.0%	-9	-2	-2.8	2.2	1
Cc1ccc(/S(C)=N/S(=O)(=O)c2ccc(C)cc2)cc1 (stereo not given)	-1.2%	-4	7	-1.6	1.2	9
CN(CC(=O)Nc1ccccc1Cl)C(=O)CCc1nc2ccccc2c(=O)[nH]1	4.3%	-2	6	-3.4	1.4	u
COc1cccc(CN2CCNC(=O)C2CC(=O)NCCN2CCCCC2=O)c1 (stereo not given)	-1.4%	-32	-8	0.4	0.6	-23
C#CCn1c(=NC(=O)CN2C(=O)CCC2=O)sc2cccc(C)c21	1.8%	-2	6	-2.6	-0.8	1
CC(c1ccon1)N(C)C(=O)c1ccc(OC2CCN(C(=O)C3CC3)CC2)cc1 (stereo not given)	-1.3%	-5	-1	-4.7	0.1	-8
Cc1cc(C(=O)N2CCCC(N3CCN(c4cccc(Cl)c4)CC3)C2)no1 (stereo not given)	0.3%	-20	-5	-0.1	0.6	2
CC1(C(=O)Nc2nc3ccccc3s2)CC1(Br)Br (stereo not given)	0.5%	-12	-10	1.6	0.8	-20
O=c1c(/C=C(\O)c2ccccc2)nc2ccccc2n1-c1ccccc1	10.0%	-11	21	-1.3	u	8
Clc1ccc(SCCn2cncn2)cc1	-0.6%	-22	-2	-4.3	1.9	0
CC1CCN(c2ccccc2NC(=O)c2ccc(F)cc2)CC1	x	-22	20	-0.3	0.5	13
O=C(CSC(=S)N1CCOCC1)Nc1ncc2c(n1)CCCC2=O	5.2%	-6	-4	1.1	0.5	4
Nn1c(Cc2ccccc2)nc2sc3c(c2c1=O)CCC3	6.4%	-10	3	0.3	x	-12
Cc1sc2nc(CN3CCOCC3)nc(Oc3ccc(NC(=O)c4ccco4)cc3)c2c1C	-0.8%	-16	-11	-0.9	2.2	-1
COc1ccc(OC)c(C(=O)c2oc3ccccc3c2NC(C)=O)c1	x	-6	7	2.6	-0.4	16
O=C(Cn1c2ccccc2c2nc3n(c(=O)c21)CCS3)N1CCCC1	0.2%	-7	3	-6.8	-0.8	2
